Screening results (PubChem)
E coli growth: blocks Escherichia coli growth | OD600, 23 h; stronger effect = lower value | OD600 absorbance (no concentration beside the values) | actives 0.21% (n = 330,000) | AID 1053175;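 active = OD600 absorbance below the run mean of sample wells minus 3.6 SD, in any replicate, cut at about 0.56 in these data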;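 also: stock transfer was 300 nL into about 60 µL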
LANA-H2A inh: blocks KSHV LANA binding to histone H2A/H2B; cell-free LANA-H2A/H2B peptide, fluorescence polarization; inhibition, % (concentration not given with the values); actives 0.6% (n = 320,000); in the data active = inhibition mostly above about 10%, no sharp cut-off; inactive = mostly below about 6.7%;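 also: stock transfer was 7.5 nL into about 10 µL; 0% = median of vehicle wells and 100% = median of positive control wells; one replicate is shown; the record names a cut of 25% in any replicate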
A1 inh: inhibitors of the anti-apoptotic protein A1, read as caspase activation | MEF A1-2A-BIM cells, Caspase-Glo 3/7 luminescence, 3 h; percent of clofoctol response, vehicle zero | caspase activation, % (concentration not given with the values) | actives 0.066% (n = 330,000) | AID 2462;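 active = over half of replicate activation scores above 10%, or exactly half above 10 with the replicate mean above 10; inconclusive = replicate mean below 10 yet half the replicates above 10; inactive = over half of replicates below 10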;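 also: wells of about 30 µL received 50 nL stock; many hits fall short of the cut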
HNF4A DNA FP: change in binding of human HNF4 alpha to DNA. P41235. HNF4a-FITC DNA binding, fluorescence polarization, 1 h. activity change, % at 10 µM. actives 0.3% (n = 360,000); in the data active = activity change above about 30%, passing the limit was not always enough;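 also: controls were the assay level and a saturating level of protein; the project sought stronger binding though the title names inhibitors; some compounds called inactive have numbers as strong as hits; positive values seem to mean higher polarization but the record does not say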
Target sequence (P41235 whole entry, looked up): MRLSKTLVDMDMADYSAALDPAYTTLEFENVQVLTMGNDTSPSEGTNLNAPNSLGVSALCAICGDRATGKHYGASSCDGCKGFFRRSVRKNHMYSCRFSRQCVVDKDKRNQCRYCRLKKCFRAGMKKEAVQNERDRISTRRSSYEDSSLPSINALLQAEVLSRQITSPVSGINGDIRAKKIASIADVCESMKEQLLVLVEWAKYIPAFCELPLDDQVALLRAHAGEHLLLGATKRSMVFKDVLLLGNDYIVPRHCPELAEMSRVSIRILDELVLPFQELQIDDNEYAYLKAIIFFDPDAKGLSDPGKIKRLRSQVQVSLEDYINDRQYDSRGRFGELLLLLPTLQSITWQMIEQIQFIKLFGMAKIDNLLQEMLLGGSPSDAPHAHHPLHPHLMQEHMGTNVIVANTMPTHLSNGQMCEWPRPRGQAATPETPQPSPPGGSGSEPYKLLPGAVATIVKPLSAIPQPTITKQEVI
Vif TR-FRET: inhibitors of Vif binding to APOBEC3G peptide, primary screen, biochemical, TR-FRET, GST-Vif 1-94, biotin-A3G peptide, dose response retest (AID 1117319); TR-FRET GST-Vif / biotin-A3G peptide binding; higher % means a stronger effect; test concentration not given here; strong numbers were not always called active; inhibition, %, or IC50 in µM where a hit was titrated; actives 0.57% (n = 260,000);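 active = above the screen mean plus three standard deviations and confirmed in dose response; inconclusive = results disagree or hit not tested in dose response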;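 also: Vif residues 1-94 fused to GST binding biotinylated APOBEC3G peptide 110-148; 0% = full assay without inhibitor and 100% = GST in place of GST-Vif; retest series ran down from 100 µM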
UCH37 DUB inh: human UCH37 deubiquitinating enzyme inhibition; purified proteasome/UCH37, Ub-AMC cleavage fluorescence; inhibition, % (test concentration not listed); AID 588478; actives 0.33% (n = 330,000); Q9Y5K5;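 active = mean of two replicates above 20%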;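 also: 0% = compound-free wells with enzyme and 100% = wells lacking proteasome; stock transfer was 100 nL into about 20 µL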
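Material: Human UCH37 enzyme supplied as purified proteasome complex | Schedule: 30 min compound-proteasome preincubation then 25 min substrate reaction, room temperature | Detection: AMC fluorescence from Ub-AMC cleavage, excitation 355 nm, emission 460 nm | Benchmarks: Wells without proteasome as full block, compound-free enzyme plus substrate as uninhibited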
Beta2AR agonist: activates human beta-2 adrenergic receptor causing internalization; P07550; Am2.2-beta2AR cells, FAP receptor internalization, flow cytometry; reference of the scale not given here; response, % (concentration not given with the values); actives 0.43% (n = 340,000); AID 504454;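 active = response above a set limit, near 3 SD of response in nonfluorescent compounds, cut at about 42% in these data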;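 also: stock transfer was 100 nL into about 11 µL; a reference agonist was the positive control; negative values mostly stem from fluorescent compounds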
Target sequence (P07550 whole entry, looked up): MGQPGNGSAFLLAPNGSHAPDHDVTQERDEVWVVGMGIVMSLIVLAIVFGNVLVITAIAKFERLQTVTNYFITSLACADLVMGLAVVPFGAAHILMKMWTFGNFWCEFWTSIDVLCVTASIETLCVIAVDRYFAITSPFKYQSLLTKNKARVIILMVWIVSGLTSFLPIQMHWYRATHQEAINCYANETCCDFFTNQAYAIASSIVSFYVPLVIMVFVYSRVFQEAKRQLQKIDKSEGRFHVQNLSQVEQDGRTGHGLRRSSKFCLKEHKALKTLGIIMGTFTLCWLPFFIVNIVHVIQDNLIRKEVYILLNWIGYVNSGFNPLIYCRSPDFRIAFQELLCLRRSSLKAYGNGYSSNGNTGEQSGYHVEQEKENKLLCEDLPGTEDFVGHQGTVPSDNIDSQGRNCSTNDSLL
Starred values were filed as active, the others as inactive; ? = inconclusive; . = not tested or not shown; & = joins results of further samples; ! = a repeat was not active. A portion of the library; the hit share may differ from the screen's.

SMILES | E coli growth | LANA-H2A inh | A1 inh | HNF4A DNA FP | Vif TR-FRET | UCH37 DUB inh | Beta2AR agonist
CC[C@]12CCCN3CCc4c(n(c5ccccc45)[C@@](O)(C(=O)OC)C1)[C@@H]32 | 0.7 | -5.8 | 0.6 | 1.1 | . | 1.8 | 26
Cc1ccsc1/C=C/C1=NCCCN1C | . | -7.6&5.1 | 1.7 | 0.1&-1.4&2.7 | ? | 3.9&5.0 | -6&-2&-6
COc1ccc(S(=O)(=O)Nc2nnc(CC(C)C)s2)cc1 | 0.75 | -2.5 | 0.9 | 0.3 | -1% | -2.6 | -17
CCCCOC(=O)c1ccc(N)cc1 | 0.64 | 1.2 | -0.4 | 3.1 | -8% | 2.7 | -6
O=C1CCc2cc(OCCCCc3nnnn3C3CCCCC3)ccc2N1 | . | 33* | -0.3 | 1.3 | 31%&2%&-7% | 0.8 | -12
C[C@@H]1C[C@H]2[C@@H]3C[C@H](F)C4=CC(=O)C(Cl)=C[C@]4(C)[C@@]3(F)[C@@H](O)C[C@]2(C)[C@@]1(O)C(=O)CO | . | -2.6 | 0.1 | . | -11% | 2.5 | .
CCC(Cc1c(I)cc(I)c(N)c1I)C(=O)O (stereo not drawn) | 0.69 | 3.2 | 0.2 | -3.6 | . | 1.6 | 4
Nc1ncnc(Nc2ccccc2)n1 | 0.64 | 0.5 | -0.1 | -1.2 | . | 2.3 | -6
CCN(CC)S(=O)(=O)c1ccc(C(=O)O)cc1 | 0.7 | -0.5 | -0.6 | 4.7 | . | 3.5 | 1
CCCN(CCC)C(=O)C(CCC(=O)O)NC(=O)c1ccccc1 (stereo not drawn) | 0.68&0.68 | -1.0&3.0 | -0.2&0.0 | -2.9 | 5% | 1.2&2.8 | 2
COc1ccc(Sc2ccc(NC(=O)c3ccccc3Cl)cc2C#N)cc1 | 0.76 | 0.5 | -0.2 | 2.1 | -2% | 3.8 | 4
C#C[C@]1(O)CC[C@H]2[C@@H]3CCC4=CC(=O)CC[C@@H]4[C@H]3CC[C@@]21CC | . | 2.9&3.7 | -0.8&-1.0 | -0.8&3.2 | -10%&-1% | -1.7&1.5 | -1&4
CCOc1ccc(NC(=S)N2CCC(C(O)(c3ccccc3)c3ccccc3)CC2)cc1 | 0.71 | 5.7 | -0.4 | -1.5 | . | 5.7 | 7
O=C(O)CCCCCCCC(=O)O | 0.68 | 31*! | -1.2 | 4.0 | . | 0.1 | -5
COc1c(O)cc2c(c1O)[C@@H]1O[C@H](CO)[C@@H](O)[C@H](O)[C@H]1OC2=O | 0.68 | -2.3 | 2.3 | -1.6 | -6% | 0.5 | 4
CC1(C)Oc2ccc(C#N)cc2[C@@H](N2CCCC2=O)[C@@H]1O | . | 4.6&-2.2 | -0.3 | 0.0 | ? | 4.8 | 1
CCN(CC)CCOC(=O)C(c1ccccc1)c1ccccc1 | 0.63 | 8.9 | 1.3 | 0.0 | 6% | 1.8 | -8
COc1cc(C(=O)NCCCCCC(=O)O)cc(OC)c1OC | . | -7.3 | 0.9 | 3.3 | ? | 2.3 | -8
CN(C)CCOC(=O)C(c1ccccc1)C1(O)CCCC1 (stereo not drawn) | 0.67 | 7.7 | 0.2 | -0.2 | 14% | 1.1 | -3
CN1CCN(c2c(F)cc3c(=O)c(C(=O)O)cn4c3c2SCC4)CC1 | 0.047* | -6.6&4.8 | 0.4&-0.1 | 3.2 | 19%&7% | -248 | 6

Records listed so far marked active in E coli growth.
SMILES,E coli growth,LANA-H2A inh,HNF4A DNA FP,Vif TR-FRET,UCH37 DUB inh,Beta2AR agonist
CN1CCN(c2c(F)cc3c(=O)c(C(=O)O)cn4c3c2SCC4)CC1,0.047*,-6.6&4.8,3.2,19%&7%,-248,6

The listing picks up with the 4 entries that preceded the break.
SMILES | E coli growth | LANA-H2A inh | A1 inh | HNF4A DNA FP | Vif TR-FRET | UCH37 DUB inh | Beta2AR agonist
CCN(CC)CCOC(=O)C(c1ccccc1)c1ccccc1 | 0.63 | 8.9 | 1.3 | 0.0 | 6% | 1.8 | -8
COc1cc(C(=O)NCCCCCC(=O)O)cc(OC)c1OC | . | -7.3 | 0.9 | 3.3 | ? | 2.3 | -8
CN(C)CCOC(=O)C(c1ccccc1)C1(O)CCCC1 (stereo not drawn) | 0.67 | 7.7 | 0.2 | -0.2 | 14% | 1.1 | -3
CN1CCN(c2c(F)cc3c(=O)c(C(=O)O)cn4c3c2SCC4)CC1 | 0.047* | -6.6&4.8 | 0.4&-0.1 | 3.2 | 19%&7% | -248 | 6
CCC12CCCN3CCc4c(n(c5ccccc45)C(O)(C(=O)OC)C1)C32 (stereo not drawn) | 0.79 | 7.6 | -0.4 | -32 | ? | -3.5 | -7
Nc1cc(=O)[nH]c(N)n1 | 0.72 | 7.2 | 0.0 | 1.8 | . | -0.4 | -3
O=C(NCCN1CCOCC1)c1ccc(Cl)cc1 | 0.62 | -2.1 | 1.4 | -2.2 | 1% | 3.3 | 3
COc1cc2c(c(OC)c1OC)-c1c(cc(OC)c(OC)c1OC)C[C@H](C)[C@H](C)C2 | . | 1.1 | 0.2 | 4.2 | . | 1.6 | 2
CN1CCN(CCCN2c3ccccc3Sc3ccc(S(=O)(=O)N(C)C)cc32)CC1 | 0.67 | -0.6 | 0.9 | 1.7 | . | 1.0 | 12
O=c1c(O[C@@H]2O[C@H](CO)C(O)C2O)c(-c2ccc(O)c(O)c2)oc2cc(O)cc(O)c12 (stereo partly drawn) | . | -3.9 | 0.0 | 5.3 | . | 3.4 | 3
CC(C)(C(=O)c1cccnc1)c1cccnc1 | 0.65 | 2.9 | 1.3 | 2.6 | . | -0.7 | -1
C/C=C(/C)C(=O)O[C@@H]1c2cc3c(c4c2[C@@]2(CO4)C(=O)C(OC)=C(OC)C=C2C[C@@H](C)[C@H]1C)OCO3 | . | 1.8 | -1.3 | 2.9 | 15% | 5.3 | 0
COc1ccccc1OC(=O)Oc1ccccc1OC | 0.71 | . | . | 0.6 | -9% | 2.7 | 0
Oc1cc2c(cc1O)C1c3ccc(O)c(O)c3OCC1(O)C2 (stereo not drawn) | 0.74 | 2.3 | 0.1 | 6.3 | 0.46µM* | 3.3 | 4
CN(C)CCC[C@@]1(c2ccc(F)cc2)OCc2cc(C#N)ccc21 | 0.69 | 2.1 | 0.2 | 3.1 | . | 1.2 | -6
COc1cc(C)nc(-n2nc(C)cc2OC)n1 | 0.72 | -37 | 0.6 | 1.7 | 9% | -1.3 | 3
O=C(c1ccccc1)c1ccc2n1CCC2C(=O)O (stereo not drawn) | 0.69 | -3.3 | -1.7 | -3.4 | -9% | 5.7 | 1
CC(=O)O[C@@]12CO[C@@H]1C[C@H](O)[C@@]1(C)C(=O)[C@H](O)C3=C(C)[C@@H](OC(=O)[C@H](O)[C@@H](NC(=O)OC(C)(C)C)c4ccccc4)C[C@](O)([C@@H](OC(=O)c4ccccc4)[C@H]21)C3(C)C | . | -0.8 | 0.4 | . | -9% | . | .
O=C1c2ccccc2C(=O)c2c(O)c(O)cc(O)c21 | 0.66 | . | . | -52 | . | 4.9 | 11
CCOC(=O)Nc1ccc2c(c1)N(C(=O)CCN1CCOCC1)c1ccccc1S2 | 0.7 | -2.5 | -0.2 | 0.0&0.1 | 8%&1% | 3.9&0.2 | -24&-8
CCCc1cc(C(N)=S)ccn1 | 0.66 | -18 | 0.3 | 3.0 | 29% | 2.5 | -2
O=C1c2c(O)cccc2C(C2OC(CO)[C@@H](O)[C@H](O)[C@H]2O)c2cc(CO)cc(O)c21 (stereo partly drawn) | 0.79 | 1.6 | 0.3 | -14 | . | 4.0 | -12
COc1cc(NC(=O)c2cc(C3CC3)on2)c(OC)cc1Cl | 0.76 | 4.1 | 1.9 | -0.4 | 2% | -2.2 | -5
CC(=O)OCC(=O)C1(O)CCC2C3CCC4=CC(=O)C=CC4(C)C3(F)C(O)CC21C (stereo not drawn) | . | . | . | -3.4 | -6% | . | 3

Exported as labelled records: entries from further up.
CCC12CCCN3CCc4c(n(c5ccccc45)C(O)(C(=O)OC)C1)C32 (stereo not drawn)
  E coli growth = 0.79; LANA-H2A inh = 7.6; A1 inh = -0.4; HNF4A DNA FP = -32; Vif TR-FRET = ?; UCH37 DUB inh = -3.5; Beta2AR agonist = -7

CCOC(=O)Nc1ccc2c(c1)N(C(=O)CCN1CCOCC1)c1ccccc1S2
  E coli growth = 0.7; LANA-H2A inh = -2.5; A1 inh = -0.2; HNF4A DNA FP = 0.0&0.1; Vif TR-FRET = 8%&1%; UCH37 DUB inh = 3.9&0.2; Beta2AR agonist = -24&-8

Profiles, quoted from the list:
COc1ccc(S(=O)(=O)Nc2nnc(CC(C)C)s2)cc1 in the list: E coli growth: 0.75; LANA-H2A inh: -2.5; A1 inh: 0.9; HNF4A DNA FP: 0.3; Vif TR-FRET: -1%; UCH37 DUB inh: -2.6; Beta2AR agonist: -17
CCN(CC)S(=O)(=O)c1ccc(C(=O)O)cc1 in the list: E coli growth: 0.7; LANA-H2A inh: -0.5; A1 inh: -0.6; HNF4A DNA FP: 4.7; Vif TR-FRET: .; UCH37 DUB inh: 3.5; Beta2AR agonist: 1
CN(C)CCOC(=O)C(c1ccccc1)C1(O)CCCC1 (stereo not drawn) in the list: E coli growth: 0.67; LANA-H2A inh: 7.7; A1 inh: 0.2; HNF4A DNA FP: -0.2; Vif TR-FRET: 14%; UCH37 DUB inh: 1.1; Beta2AR agonist: -3
